Autofluor counter – compound fluorescence in toxin protease inhibitor counterscreen | AID 624483 | fluorescence intensity (concentration not given with the values) | compound autofluorescence counterscreen, microsphere flow cytometry; stronger effect = higher value | hit rate 3.1% among 360,000;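 active = at least 3 SD above the mean of all compounds, about 16000 in these data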;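 also: 100 nL of 1 mM stock went into each well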
BJeLR lethal – BJeLR cell viability loss; inhibition, % (no concentration beside the values); hit rate 0.17% among 300,000; BJeLR (HRASV12) viability, CellTiter-Glo ATP luminescence, 48 h; reference of the scale not given here;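 active = replicate mean above 50%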;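 also: 50 nL library stock added to about 25 µL; numbers are from one replicate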
PrP UTR inh – suppresses PrP 5' UTR mRNA reporter expression; hit rate 0.35% among 340,000; cell-based PrP 5' UTR mRNA reporter, plate reader; inhibition, % (concentration not given with the values);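 active = every replicate at 50% or more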;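 also: 0 = median of the neutral control wells; tested in H4 reporter cells; numbers are from one replicate; inactives centre near -14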
RN4220 kill – S. aureus RN4220 growth inhibition. OD600, 16 h. inhibition, % (no concentration beside the values). hit rate 0.33% among 330,000. AID 1259311;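 active = z-score of -3 or lower and OD600 up to 0.18 on both plates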;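 also: plate controls were untreated cells for no effect and reference antibiotic for full effect; stock transfer was 100 nL into about 80 µL; one replicate is shown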
Mtb hypoxia rep – inhibitors of hypoxia-regulated fluorescent reporter in Mycobacterium tuberculosis; M. tuberculosis hypoxia-regulated fluorescent reporter, fluorescence; fluorescence inhibition, % (test concentration not listed); hit rate 0.1% among 300,000;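 active = 35 to 45% if threefold the growth effect, above 45% if 1.5-fold the growth effect; inactive = the rest, general growth blockers included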;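 also: wells of about 50 µL received 100 nL stock; 0% = vehicle wells and 100% = reference inhibitor wells; whole bacteria with a GFP reporter of the hypoxia response; strong numbers were not always called active; many hits fall short of the cut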
Sa ugtP lethal – growth inhibition of S. aureus ugtP deletion strain. S. aureus RN4220 ugtP deletion, OD600 growth, 16 h; some inactives read as strong as hits. growth inhibition, % (no concentration beside the values). hit rate 0.54% among 330,000;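 active = z-score under -3 and OD600 up to 0.15 on both plates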;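 also: plate controls were untreated wells for no effect and antibiotic for full effect; wells of about 80 µL received 100 nL stock; the first replicate is given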
Mtb hypoxia rep growth – second read-out of Mtb hypoxia rep, no call of its own (marks repeat the call); growth inhibition, %; measured here: M. tuberculosis growth (absorbance);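 0% = vehicle and 100% = reference antibiotic; read after six days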
The depositor's hits bear a star; . = no result given.

SMILES	Autofluor counter	BJeLR lethal	PrP UTR inh	RN4220 kill	Mtb hypoxia rep	Mtb hypoxia rep growth	Sa ugtP lethal
COCCn1nnnc1C(c1ccc(OC)cc1OC)N1CCN(c2ccccc2)CC1 (configuration not stated)	2644	-1	7	-5.4	.	.	-2
COc1ccc2[nH]c(C(=O)NCc3ccccc3)cc2c1	6195	5	-18	-4.1	10	2	-17
COc1ccc(N=Cc2c[nH][nH]c2=O)cc1	10634	7	-5	0.7	2	3	-3
CCCNC(=O)COC(=O)c1ccccc1C(=O)N(C)C1CCCCC1	2192	0	-31	4.0	9	-1	-4
O=C(N/N=C/c1ccccc1OC(=O)N1CCOCC1)c1cccs1	3495	7	-16	.	.	.	.
O=c1c2ccccc2oc2cc(OCc3cccc(F)c3)cc(O)c12	3257	-5	-11	-0.7	14	8	1
O=C(CSC1=NS(=O)(=O)c2cc(F)ccc2N1)NCc1ccccc1Cl	6489	3	-7	3.2	7	5	8
O=[N+]([O-])c1ccc(N2CCCCC2)c(Cl)c1N1CCCCC1	19380*	-14	-8	-2.1	1	3	69
Cc1c(OCC(=O)NCCCN2CCOCC2)ccc2c1oc(=O)c1ccccc12	4277	-6	-9	0.8	8	0	4
NC(=O)C1CCCN(C(=O)c2ccc(NC(=O)c3cccs3)cc2)C1 (configuration not stated)	3880	.	-27	0.9	5	-3	2
CCOC(=O)/C=C/C(=O)Nc1ccc(Oc2ccccc2)cc1	4336	-9	-29	-23	-4	-8	-7
Cc1cc(C)c(S(=O)(=O)NCC(=O)NCc2ccccn2)c(C)c1	4739	2	-24	4.8	19	4	14
COc1ccc(OC)c(NC(=O)COC(=O)CCCN2C(=O)c3ccccc3C2=O)c1	9050	-1	-27	5.6	3	15	1
COc1ccc(NC(=S)N2CCC(c3nc4ccccc4o3)CC2)c(OC)c1	5387	5	-39	6.5	17	4	5
Cc1nc2ncnn2c(C)c1Cc1cccc(C(F)(F)F)c1	3378	5	-11	7.1	7	1	2
CC(C)C(=O)Nc1cccc(C(=O)Nc2nnc(C(C)(C)C)s2)c1	2898	-7	-19	8.2	6	-5	-3
COc1ccccc1NC(=O)COc1ccccc1C(=O)Nc1ccccc1	3351	5	-18	-12	7	7	16
O=C(O)COc1ccccc1/C=N/NC(=O)Cc1csc(Nc2cccc(C(F)(F)F)c2)n1	4784	-2	-18	.	.	.	.
O=S(=O)(Nc1nc2ccccc2nc1NCC1CCCO1)c1ccc(F)cc1 (configuration not stated)	4244	8	-27	8.5	-1	-9	-2
COc1ccccc1CNC(=O)C(CCSC)NS(=O)(=O)c1ccc2c(c1)oc(=O)n2C (configuration not stated)	3418	2	-14	1.9	.	.	0
Cc1cccc(OCC(=O)NN=Cc2ccc(N(C)C)cc2)c1	.	.	.	6.4	-1	7	7
Cc1cc(C)nc(SCC(=O)c2ccc3c(c2)OCCO3)n1	7940	3	-25	28	15	7	14
CC(C)c1ccccc1OCC(=O)NCC(c1cccs1)N1CCOCC1 (configuration not stated)	5856	4	-9	15	.	.	-11
O=[N+]([O-])c1cccnc1NCCc1c[nH]c2ccccc12	3526	-6	-56	9.1	4	10	12
CC(C)(C)OC(=O)N1CCCC1C(=O)N1CCC(C(=O)O)CC1 (configuration not stated)	.	.	.	3.7	8	-1	-6
Cc1nc2ccccn2c1C(=O)NN=Cc1ccccc1	.	.	.	-3.4	2	-3	6
COC(=O)c1cc(NC(=O)c2cc(C)oc2C)cc(C(=O)OC)c1	10021	-6	-16	7.9	7	5	-3
O=C(NCCCN1CCN(CCCNC(=O)c2cccc(Cl)c2)CC1)c1cccc(Cl)c1	11288	-1	-19	.	.	.	.
COCCCNC(CC(=O)Nc1cc(C)cc(C)c1)C(=O)O (configuration not stated)	6138	-4	-19	-4.8	-6	3	-10
Cc1ccc(C(=O)Nc2ccc(C(=O)NN=Cc3cccnc3)cc2)cc1	.	.	.	-2.1	-1	6	-6
CC(=O)Nc1ccc(S(=O)(=O)NC2CCCCCC2)cc1	3522	-10	-23	5.3	2	-5	15
O=C1CC2(CCN(C(=O)COc3ccccc3)CC2)Oc2ccccc21	5471	4	-15	-2.3	8	7	7
COc1cc(OC)cc(C(=O)NNC(=S)NC2CC2)c1	5189	24	-24	7.0	15	5	-2
COc1ccc(CC(NC(C)=O)C(=O)NC2CCN(c3nc(C)cc(C)c3C#N)CC2)c(OC)c1 (configuration not stated)	4437	-14	-16	7.9	.	.	8
O=C(CSc1ccsc1[N+](=O)[O-])N1CCN(c2ccccc2)CC1	2526	2	-14	9.5	16	15	-12
O=C(CCCCCNS(=O)(=O)c1ccc(Br)cc1)NCCN1CCOCC1	9752	.	.	3.8	-2	0	1
NC(=O)c1ccc[n+](Cc2ccccc2)c1	7948	-24	-18	3.1	9	3	-1
COCCNC(=O)CSc1nc2ccccc2c(=O)n1CCC(=O)N1CCN(c2ccccc2)CC1	4344	17	-14	0.9	11	14	2
CC(C)Cn1c(=O)c2ccccc2n2c(CCC(=O)NCc3ccccn3)nnc12	4820	-6	-14	2.4	0	1	0
CCC(=O)N/C(N)=N/c1nc(C)c2cc(OC)ccc2n1	11827	14	-46	3.5	2	-1	-15
Clc1ccccc1COc1ccc(/C=N/n2cnnc2)cc1	10422	-6	-23	.	.	.	.
COc1cccc(NC(=O)Cn2c(=O)oc3ccccc32)c1	23609*	-7	6	1.4	3	6	-1
COc1ccc(/C(C)=N/NC(=O)c2ccc(N(C)C)cc2)cc1	3017	1	-12	.	.	.	.
COc1cc(C=Nn2c(C)nc3ccccc3c2=O)ccc1O	.	.	.	0.6	3	9	2
NC(=O)CSc1nnc(-c2cccc(S(=O)(=O)N3CCCCC3)c2)o1	3280	15	8	3.2	3	14	4
CC1(C)CC(CC(=O)O)(c2ccccc2)CCO1 (configuration not stated)	2346	2	-4	6.8	15	11	9
COc1ccc(C=Nn2cnc3c([nH]c4ccccc43)c2=O)cc1CO	.	.	.	7.4	13	2	3
CCNC(=O)/C(C#N)=C/c1c(N2CCN(Cc3ccc4c(c3)OCO4)CC2)nc2c(C)cccn2c1=O	2451	-5	18	5.3	12	6	9
O=C(NCc1ccccc1F)C1CCN(C(=O)Nc2ccc(F)cc2)CC1	3709	-4	-28	0.8	14	6	13
O=C(NCc1cccnc1)c1ccc2c(c1)N(Cc1ccccc1)CCS2	3317	-5	-3	3.6	14	6	7
CCO[C@@H]1OC(C(N)=O)=C[C@H](c2ccc(Br)cc2)[C@H]1CCCO	3509	-3	-44	-12	7	4	-6
CC1(C)CC(=O)C=C(Nc2ccccc2F)C1	2862	-10	-20	2.0	.	.	-10
Fc1c(F)c(F)c(/C=N/NC(=S)Nc2cccnc2)c(F)c1F	4378	-12	-1	.	.	.	.
Cc1ccc(CC(=O)Nc2cccnc2)cc1	2284	4	-10	6.8	5	7	-3
CC1=NNC(=O)C1CC(=O)N/N=C(\C)c1cccs1 (configuration not stated)	2084	-6	6	.	.	.	.
CC(C)(C)c1ccc(C(=O)Oc2ccccc2CCC(=O)O)cc1	.	7	.	4.4	9	10	4
O=C(CN1C(=O)CCS(=O)(=O)c2ccccc21)NCc1ccc(F)cc1	3161	2	1	0.7	-14	-4	4
Cc1ccc(S(=O)(=O)Nc2ccc(Br)cc2/C=N/n2cnnc2)cc1	8169	4	-13	.	.	.	.
CC(=NNC(=O)CN1CCN(Cc2ccccc2)CC1)c1ccncc1	.	.	.	4.3	8	3	6
CCCCCN(C(=O)COC(=O)Cc1c(C)nc2ccccc2c1C)c1c(N)n(CCCC)c(=O)[nH]c1=O	5480	0	-7	-1.0	-12	4	5

Part of the list above, reduced to Autofluor counter, BJeLR lethal and Sa ugtP lethal.
molecule	Autofluor counter	BJeLR lethal	Sa ugtP lethal
O=c1c2ccccc2oc2cc(OCc3cccc(F)c3)cc(O)c12	3257	-5	1
O=C(CSC1=NS(=O)(=O)c2cc(F)ccc2N1)NCc1ccccc1Cl	6489	3	8
O=[N+]([O-])c1ccc(N2CCCCC2)c(Cl)c1N1CCCCC1	19380*	-14	69
Cc1c(OCC(=O)NCCCN2CCOCC2)ccc2c1oc(=O)c1ccccc12	4277	-6	4

The listing continues:
SMILES	Autofluor counter	BJeLR lethal	PrP UTR inh	RN4220 kill	Mtb hypoxia rep	Mtb hypoxia rep growth	Sa ugtP lethal
Cc1ccccc1OC1C(=O)N(Cc2ccc3c(c2)OCO3)C1c1sccc1C (configuration not stated)	22460*	-1	5	0.3	12	5	31
COc1ccc(S(=O)(=O)N2c3ccccc3OCC2CC(=O)O)cc1 (configuration not stated)	3894	-8	-11	6.7	3	9	-4
O=C(Cn1ncc2c([nH]c3ccccc32)c1=O)N1CCOCC1	5831	3	1	3.9	8	-6	-4
O=C(NCc1ccco1)c1ccc(-c2cccc(Cl)c2)o1	4376	2	-6	-0.2	0	10	-8
Cc1cc(C)nc(SCC(=O)N/N=C/c2cccn2-c2cccc(C(F)(F)F)c2)n1	15733	1	-19	.	.	.	.
CCOP(=O)(c1ccc(N(C)C)cc1)C(O)c1ccccc1 (configuration not stated)	9519	-7	-18	2.0	0	24	-4
Cc1ccc(C)c(NS(=O)(=O)c2cc(C(=O)Nc3ccccc3-c3ccccc3)ccc2Cl)c1	7061	2	-13	3.2	4	0	0
Cc1cnc(C(=O)Nc2ccc(-n3cnnn3)cc2)cn1	3469	-3	-27	4.3	6	5	2
CCN(CC)c1ccc(/C=N/NC(=O)Nc2ccccc2)cc1	4282	2	-90	.	.	.	.
CCC(C)Sc1nnc(CSc2nc3nc(C)cc(C)n3n2)o1 (configuration not stated)	7919	-2	-28	8.2	14	13	8
O=C(NCCC1=CCCCC1)C1CCN(S(=O)(=O)c2ccc(-n3cnnn3)cc2)CC1	2565	.	-17	-8.2	-4	11	-8
CCOc1ccccc1CNC(CC)CO (configuration not stated)	2479	-2	-10	0.9	11	8	9
C=CCn1nnnc1SCC(=O)Nc1ccc(C(=O)OC)cc1	5429	0	-14	4.3	8	8	13
Brc1cc(C=Nn2cnnc2)oc1Br	.	.	.	0.3	2	-10	0
CN(CCNC(=O)C1CCN(S(=O)(=O)c2cnc[nH]2)CC1)Cc1ccccc1	3460	-1	-15	1.8	1	0	18
Cc1cccc(NC(=O)c2cccc(C(=O)Nc3cccc(C)c3)c2)c1	3675	-2	-28	-0.3	-3	-10	0
CCCC(=O)NCc1ccncc1	.	-1	.	6.0	4	0	3
Cc1cc(C)n(CC(=O)NN=Cc2cccc([N+](=O)[O-])c2)n1	.	.	.	2.8	1	10	2
CCC(=O)N1CCc2cc(Br)c(S(=O)(=O)CCC(=O)NCCc3ccccc3)cc21	3790	.	-9	0.0	-4	-3	-2
COC(=O)c1ccc(N2CCCCC2)c(NC(=O)c2ccco2)c1	3301	-7	1	6.4	-16	-8	13
O=C(O)c1sccc1S(=O)(=O)N1CCN(c2ccc(C(F)(F)F)cn2)CC1	.	2	-3	-0.2	16	9	4
COc1ccc(C(=O)C[n+]2cccc(C)c2C)cc1[N+](=O)[O-]	4171	7	-21	4.0	4	2	2
CCCOc1ccc(C2C3=C(CCCC3=O)N(CC(=O)O)C3=C2C(=O)CCC3)cc1OCC	.	4	-8	4.3	-6	6	9
COc1cc(=O)[nH]c(=O)n1CC(=O)c1ccccc1	4505	2	-8	-2.3	.	.	8
Cc1ccc(NC2CCCN(C(=O)c3cnsn3)C2)cc1C (configuration not stated)	5390	-5	-7	4.4	6	13	5
C=CCOc1ccccc1CN(C(=O)CCl)c1ccc2c(c1)OCO2	6350	125*	-8	.	.	.	.
C=C(C)Cn1c(CCNC(=O)C(C)C)nc2ccccc21	4346	10	-27	-8.9	-2	14	-3
CC(NCc1ccccc1C(F)(F)F)C(O)c1ccccc1 (configuration not stated)	4459	-1	-19	5.8	12	4	6
COc1cccc(C(=O)Nc2cc(C(=O)NCCc3ccccc3)ccc2Cl)c1	9360	-7	-26	7.1	7	4	-8
COc1ccc(N(CC(=O)NC2CCCC2)C(=O)Cn2nnc(-c3ccc(OC)c(OC)c3)n2)cc1	4534	1	-8	1.8	-7	2	3
Cc1ccnc(N/N=C/c2ccco2)n1	12305	-5	-36	.	.	.	.
Cc1ccc(N2C(=O)C3C4C=CC(CNC(=S)Nc5cccc(Cl)c5)(O4)C3C2=O)cc1 (configuration not stated)	8886	1	-25	-3.4	7	-4	12
COc1ccc(NC(=O)COC(=O)c2c(-c3ccccc3)noc2C)cc1	9084	-12	.	-0.2	7	5	2
CCCc1nnc(-c2cc(OC)c(OC)c(OC)c2)o1	2193	14	-7	2.6	8	13	5
